Screens: PubChem BioAssay, National Center for Advancing Translational Sciences (NCATS)
D2 ag = human D2 receptor agonism in beta-arrestin assay; 360,000 tested, 0.084% active; P14416; DiscoveRx PathHunter D2 beta-arrestin, luminescence, 90 min; 100% = 57 uM dopamine signal; activation, % (concentration not given with the values); AID 624465; in the data active = activation above about 40%; inconclusive = about 15% to 40%; inactive = below about 15%; also: compound concentration not given in the record; the text of the record calls up to 30% inactive
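DiscoveRx PathHunter D2 beta-arrestin cells (2,100/well) attached overnight, then compound-stimulated 90 min at 37 C in HBSS/10 mM HEPES/0.1% Tween-20 buffer; beta-galactosidase complementation read by luminescence after 1 h at ambient temperature. Dopamine 57 uM final (EC100) as control.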
CtBP-E1A blk = CtBP/E1A binding inhibition; AID 651724; 340,000 tested, 0.49% active; AlphaScreen GST-E1A/His-CtBP binding, 1536-well; active compounds read low; control for the full effect not named in the record; activity change, % (concentration not given with the values); in the data active means activity change below about -65%; inconclusive means about -30% to -65%; inactive means above about -30%; also: % is scaled to controls: 0 for no effect and ±100 for the full control effect
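Protein mix (5X: 125 nM each GST-E1A, His-CtBP) was incubated with pinned compound 2 h at 37 deg C in dark, in 50 mM Tris pH 8.0 buffer with 300 mM NaCl. Glutathione donor and nickel acceptor beads followed; AlphaScreen signal read after 1 h.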
Six1-Eya2 blk = blocks human Six1 binding to Eya2. Q15475+O00167. AlphaScreen GST-Six1/His-Eya2 binding, biochemical; active compounds read low; control for the full effect not named in the record. activity change, % (test concentration not listed). 360,000 tested, 0.56% active. AID 651725; in the data active = activity change below about -65%; inconclusive = about -30% to -65%; inactive = above about -30%; also: % is scaled to controls: 0 for no effect and ±100 for the full control effect
Target sequence (O00167 whole entry, looked up): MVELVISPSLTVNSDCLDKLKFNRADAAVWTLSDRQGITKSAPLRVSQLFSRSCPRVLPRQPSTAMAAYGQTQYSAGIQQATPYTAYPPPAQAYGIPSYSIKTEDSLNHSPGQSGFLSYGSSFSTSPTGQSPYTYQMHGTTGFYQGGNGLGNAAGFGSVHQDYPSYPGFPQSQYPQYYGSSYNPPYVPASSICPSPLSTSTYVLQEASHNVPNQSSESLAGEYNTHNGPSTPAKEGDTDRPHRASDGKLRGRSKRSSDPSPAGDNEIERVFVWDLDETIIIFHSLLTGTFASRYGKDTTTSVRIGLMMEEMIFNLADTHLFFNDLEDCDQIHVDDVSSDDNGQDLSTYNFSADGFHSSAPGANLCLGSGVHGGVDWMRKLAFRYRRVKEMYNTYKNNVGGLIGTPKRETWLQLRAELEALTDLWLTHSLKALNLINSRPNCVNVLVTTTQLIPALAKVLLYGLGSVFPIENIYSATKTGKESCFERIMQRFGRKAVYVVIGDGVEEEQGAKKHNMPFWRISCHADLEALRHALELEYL
Target sequence (Q15475 whole entry, looked up): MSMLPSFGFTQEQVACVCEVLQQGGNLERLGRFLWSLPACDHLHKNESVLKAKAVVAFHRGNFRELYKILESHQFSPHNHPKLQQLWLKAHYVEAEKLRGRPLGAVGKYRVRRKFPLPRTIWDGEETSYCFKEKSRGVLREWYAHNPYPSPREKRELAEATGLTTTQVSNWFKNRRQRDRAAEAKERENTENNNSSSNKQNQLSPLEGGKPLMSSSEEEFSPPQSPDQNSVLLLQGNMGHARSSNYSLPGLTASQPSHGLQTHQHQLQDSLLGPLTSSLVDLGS
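Homogeneous AlphaScreen proximity assay pairing GST-Six1 with His-tagged Eya2 (added as 5X mix: 250 nM and 500 nM) in 50 mM Tris pH 8.0, 300 mM NaCl, 1 mM TCEP. Glutathione donor and nickel acceptor beads; 1 h, 37 °C, dark.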
TRPML1 blocker = inhibitors of human TRPML1 channel; AID 624415; TRPML1-inducible cells, Ca2+ dye fluorescence, FDSS; active compounds read low; inhibition of EC80 agonist-evoked calcium signal; 390,000 tested, 0.02% active; activity change, negative = inhibition, % (no concentration beside the values); Q9GZU1; in the data active means activity change below about -50%; inconclusive means about -30% to -50%; inactive means above about -30%;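 also: stimulus is agonist 54-4 at its EC80 concentration; % is scaled to controls: 0 for no effect and ±100 for the full control effect; compound concentration not given in the record; the text of the record puts the active cut at -80%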
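Tet-induced TRPML1-DL cells loaded with Ca8 no-wash calcium dye were read kinetically on FDSS. Compound addition was followed by EC80 agonist 54-4 (4 uM final); inhibition was read over 110 s.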
TRPML1 ag = activates the human TRPML1 channel | Q9GZU1 | AID 624414 | 410,000 tested, 0.12% active | activation, % (no concentration beside the values) | TRPML1-expressing cells, Ca2+ dye fluorescence, FDSS; host cell line not named in the record; reference of the full effect not given here; in the data active = activation above about 50%; inconclusive = about 30% to 50%; inactive = below about 30%; also: 0% is about no effect; the text of the record puts the active cut at 80%
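Cells: TRPML1-DL, 1X Tet inducer, ~16 h at 37 degrees C/5% CO2. Dye: ABD Ca8 no-wash + quencher, 45-90 min RT. Read: 10 s baseline, compound add, 110 s agonist phase; 54-4 EC80 (4uM final), 110 s antagonist phase.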
PINK1 expr mod = modulators of PINK1 expression; PINK1 immunofluorescence, high-content cytometry, 24 h; AID 624263; 410,000 tested, 0.2% active; Potency, µM (doses to about 76.6 µM), for the others: at the top dose activation (PINK1 increase), hits mostly activators; active = well fitted activation curve with a large enough effect; inconclusive = small, poorly fitted or top-dose-only effect; inactive = flat fitted curve, though single readings scatter; cell line not stated here;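 also: potency is read from the fitted curve at half-maximal effect; % of control where 0% means no effect; nearly all actives have a fitted effect of over 65% in size; a mitochondrial uncoupler was the plate control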
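Measures PINK1 amount and localization on or inside mitochondria by immunofluorescence. Stable cells get compounds at 5 concentrations for 24 hours before fixation and staining; CCCP controls included.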
* marks the source's active call; other numbers are inactive results; ? = inconclusive; nt = no result given; [ ] = remark or other dose.

The first 2 entries (preview)
The line under a structure holds: D2 ag, CtBP-E1A blk, Six1-Eya2 blk, TRPML1 blocker, TRPML1 ag, PINK1 expr mod
Cc1ccc(-c2cc(-c3ccccc3)c(C#N)c(SCC(O)CS(=O)(=O)Cc3ccccc3)n2)cc1 (stereo unspecified)
→ nt, nt, nt, 3, 1.0, 2.5%
CC1CN=C(Nc2cccc(S(=O)(=O)N(C)C)c2)S1 (stereo unspecified)
→ 1.1, 3, 0, 4, -0.3, 1.7%

Main list, from the first entry:
The line under a structure holds: D2 ag, CtBP-E1A blk, Six1-Eya2 blk, TRPML1 blocker, TRPML1 ag, PINK1 expr mod
Cc1ccc(-c2cc(-c3ccccc3)c(C#N)c(SCC(O)CS(=O)(=O)Cc3ccccc3)n2)cc1 (stereo unspecified)
→ nt, nt, nt, 3, 1.0, 2.5%
CC1CN=C(Nc2cccc(S(=O)(=O)N(C)C)c2)S1 (stereo unspecified)
→ 1.1, 3, 0, 4, -0.3, 1.7%
CC(C)CN(C(=O)CSc1nc2ccccc2[nH]1)C1CCS(=O)(=O)C1 (stereo unspecified)
→ 0.3, -1, 3, -13, 0.5, -0.6%
CN1CCN(c2ccc(S(=O)(=O)N3CCCCC3)cc2NC(=O)COc2ccc([N+](=O)[O-])cc2)CC1
→ -3.5, 0, 0, 6, 0.5, -4.7%
COc1ccc(NC(=O)Cc2nnc(SCC(=O)NC3CCCC3)n2C)cc1
→ -2.8, 3, 0, -16, 0.2, -1.3%
O=C(NCCCN=C1NS(=O)(=O)c2ccccc21)c1ccco1
→ -2.5, 0, 0, 11, 0.5, ?
COc1ccccc1C(=O)N1CCNC(=O)C1CC(=O)Nc1ccc(Cl)cc1 (stereo unspecified)
→ 0.8, 15, 3, -19, 0.1, -1.7%
Cc1ccc2oc3c(c(=O)c2c1)C1(C(=O)N(C)c2ccccc21)N(CCCO)C3=O (stereo unspecified)
→ nt, nt, nt, 6, -0.4, 1.7%
O=S(=O)(O)c1nc2ccccc2n1Cc1ccccc1
→ -3.2, 5, 2, -10, 2.6, 4.3%
Cc1ccc(CN(C)C(=O)C2CCC(=O)N(CC3CCCCC3)C2)o1 (stereo unspecified)
→ -3.0, 8, 18, 0, 0.2, 0.2%
COc1cc(C2C(C#N)=C(N)N(c3cccnc3)C3=C2C(=O)CC(C)(C)C3)ccc1O (stereo unspecified)
→ -1.3, 3, 0, 5, 0.8, -2.0%[38.3 µM]
CN(C)c1nnnn1-c1ccc(Oc2ncc(C(F)(F)F)cc2Cl)cc1
→ -4.1, 1, 4, 21, 1.2, 1.8%
CCN(CC)c1ccc2cc(-c3nc(-c4ccc(Cl)cc4Cl)cs3)c(=O)oc2c1
→ nt, nt, nt, -4, 8.9, -0.8%
Cc1ccc(-n2nc3c(=O)n(CCCC(=O)NCc4ccc(Cl)cc4)nc(C)c3c2C)cc1
→ 4.1, nt, 4, 40, -0.3, 1.0%
O=C(CCS(=O)(=O)c1ccccc1)Nc1nc(-c2cccs2)cs1
→ -0.8, -9, -7, 19, 0.8, 1.0%
CCOC(=O)[C@@H]1[C@H]2COc3ccc(Br)cc3[C@@H]2N2C(=O)N(c3cccc(Cl)c3)C(=O)[C@@]12C
→ -4.4, 10, 5, 37, 1.4, -0.1%
O=C(NCCCCc1ccccc1)C1CC(c2ccc([N+](=O)[O-])cc2)=NO1 (stereo unspecified)
→ 0.5, -11, -20, 0, -0.8, -1.0%
CC(=O)Nc1ccc(C(=O)OCC(=O)NC(=O)NCc2ccccc2)cc1
→ -5.5, 5, 9, 11, 0.3, 2.9%
Cc1cc(NC(=O)CC2CCCC2)ccc1Br
→ -1.9, 18, 4, 0, 0.3, ?
Cc1ccc(/C(O)=C2\C(=O)C(=O)N(C)C2c2ccc(Br)cc2)cc1 (stereo unspecified)
→ -2.3, nt, 5, -8, -0.7, -2.3%
CCOC(=O)C1CCCN(CCC(=O)Nc2ccccc2)C1 (stereo unspecified)
→ -2.3, 1, -5, 3, -0.8, -1.4%
Cc1cnc(C(=O)Nc2ccc(C)c(S(=O)(=O)N3CCCCCC3)c2)cn1
→ 1.9, -2, -1, 7, 1.1, 7.9%
COc1nc(NCc2ccco2)nc(N2CCC(C)CC2)n1
→ -1.1, -3, -6, 14, 1.2, 4.5%
CC(C)CCN1C(=O)c2ccc(C(=O)Nc3ccccc3C(=O)O)cc2C1=O
→ 5.7, -4, 1, 18, 3.4, -2.2%
COc1ccc2[nH]c(=O)c(CN(CCc3ccccc3)C(C)=O)cc2c1
→ -1.3, 7, 5, -2, -0.6, -0.2%[38.3 µM]
Cc1oc(-c2ccccc2F)nc1CS(=O)(=O)CC(=O)NCCCc1ccccc1
→ -3.1, 5, 1, 4, 0.9, -0.8%
O=C(NCCc1ccccc1)c1cc(=O)c2ccccc2o1
→ 0.6, 2, -2, 2, -0.7, 2.2%
CCOc1ccccc1-n1c(=S)sc2c(=O)n(-c3ccc(F)cc3)c(SCC(=O)O)nc21
→ 5.0, 2, -3, -17, 0.6, 0.2%
CCc1cccc(CC)c1NC(=S)NCC(c1cccnc1)N(C)C (stereo unspecified)
→ -3.2, 3, 5, -11, 0.1, 2.5%
COc1ccc(Cc2nnc(NCCO)[nH]c2=O)cc1OC
→ -0.8, -2, 11, 16, 0.2, 1.2%
Oc1c(C(c2ccccc2F)N2CCN(Cc3ccccc3)CC2)sc2nc(-c3ccco3)nn12 (stereo unspecified)
→ nt, nt, nt, -21, 4.1, 1.7%
CCN1CCN(c2ccc(S(=O)(=O)N3CCCCC3)cc2NC(=O)c2cccc(C)c2[N+](=O)[O-])CC1
→ -3.3, -18, -3, 13, 0.6, 6.0%
COc1ccc(N2C(=O)C3C4C=CC(C5CC45)C3C2=O)c([N+](=O)[O-])c1 (stereo unspecified)
→ -2.7, -1, -2, 16, -0.9, 1.2%
OC(c1cccs1)(c1cccs1)C1C[N+]2(CF)CCC1CC2 (stereo unspecified)
→ 4.1, 6, 5, -5, 0.7, -4.5%[38.3 µM]
CCOC(=O)C1=C(O)CSC1=Nc1cccc(Cl)c1
→ -1.8, 9, 6, 12, 0.2, 3.7%
NS(=O)(=O)c1cccc(NC(=O)CC(NC(=O)c2ccccc2Cl)c2ccccc2)c1 (stereo unspecified)
→ 5.9, 2, -4, 9, -0.5, -0.8%
CCNC(=S)NNC(=O)c1csc2c1CCC(C)C2 (stereo unspecified)
→ -8.8, 1, 0, 1, -1.3, 2.1%
C[C@H](CO)N1C[C@H](C)[C@@H](CN(C)S(=O)(=O)c2ccc(F)cc2)Oc2ccc(NC(=O)Nc3ccc(C(F)(F)F)cc3)cc2C1=O
→ 5.6, 3, -6, -9, -1.1, 0.6%
CN1C(=O)C(CC(=O)NCC2CCCCC2)SC1=Nc1ccccc1 (stereo unspecified)
→ 2.0, -8, 6, 2, 0.7, 1.6%
COc1ccc(N=C2SCC(c3ccc(C)cc3)=NN2CCO)cc1
→ -2.8, -16, -5, 26, 0.9, 2.2%
CCOC(=O)c1cc(-c2ccccc2)n(CCCC(=O)Nc2cccc(C)c2C)c1C
→ nt, nt, nt, 13, 1.5, -0.5%
O=C(NCc1ccco1)C1CCN(S(=O)(=O)c2ccccc2C(F)(F)F)CC1
→ -1.4, 5, 0, 18, -0.3, 0.8%
Cc1cccc(N=C2NC(=O)/C(=C/C=C/c3ccco3)S2)c1C
→ -4.0, -20, ?, 3, 0.8, 2.3%
Cc1cc2nc(-c3ccc(F)cc3)c(CC(C)(C)C)n2c(C)c1Br
→ -3.1, -14, 27, -15, 7.1, 25%
CSc1ccc(/C=N/Nc2nc(C)cc(C)n2)cc1
→ 2.2, 0, 0, 27, -1.3, 0.7%
CCN1C(=O)CC(C(=O)NCCc2ccc(S(N)(=O)=O)cc2)SC1=Nc1ccc(OC)cc1 (stereo unspecified)
→ -0.9, 2, -8, 15, 0.2, 3.7%
O=C(CSc1ncn[nH]1)N/N=C/c1ccc(C(F)(F)F)cc1
→ -4.1, -1, 0, 32, 1.7, 0.3%
CCOc1cc(C2/C(=C(/O)c3ccc(S(=O)(=O)N4CCCCC4)cc3)C(=O)C(=O)N2CCOC)ccc1O (stereo unspecified)
→ -2.0, 4, 3, -12, 0.0, 1.3%
COc1cc(C(=O)Nc2ccc(S(=O)(=O)N3CCCCC3C)cc2)cc(OC)c1OC (stereo unspecified)
→ 2.6, -10, -5, -4, 0.8, 14%[38.3 µM]
COc1ccc(S(=O)(=O)NC(=O)C2(C)CCN2C(=O)c2ccc(C(F)(F)F)nc2C)cc1 (stereo unspecified)
→ -3.7, 7, 8, 0, 0.2, -1.1%
CCN(CC)S(=O)(=O)c1ccc2c(c1)N(CC(=O)NCCc1ccc(OC)c(OC)c1)C(=O)CO2
→ nt, nt, nt, 17, 0.3, -0.2%
COc1cc2c(cc1OC)CN(C(=O)NS(=O)(=O)c1ccc(C)cc1)CC2
→ -2.0, -2, 2, 0, -0.5, -0.6%
Cc1ccc(S(=O)(=O)N2CCOCC2)cc1NC(=O)C1=NN(c2ccccc2)C(=O)CC1
→ 0.5, nt, -1, -3, 4.5, 5.8%
CSc1ccccc1C(=O)Nc1ccccc1C
→ -4.2, -8, 12, -28, 1.7, 0.0%
CCOc1ccc2c(c1)c(=O)c(C(=O)c1ccc(CC)cc1)cn2CC(=O)Nc1ccccc1C
→ nt, nt, nt, 6, -0.9, 1.1%
COC(=O)Cn1c(=O)c(C)nc2ccccc21
→ -3.8, 3, -15, 16, -0.8, -1.2%
Cc1ccc(Cl)cc1NC(=O)Cn1c(=O)oc2cc(S(=O)(=O)N3CCCCCC3)ccc21
→ nt, nt, nt, -22, 0.8, 16%
COc1ccc(C2CC(c3ccccc3)=NN2C(=O)COC(=O)c2ccc(S(C)(=O)=O)cc2)cc1 (stereo unspecified)
→ 1.3, 2, -10, -14, 0.3, -1.5%
O=C(NC(Cc1c[nH]c2ccccc12)C(=O)O)/C(=C/c1ccc(F)cc1)NC(=O)c1ccccc1 (stereo unspecified)
→ -1.1, 0, 2, -1, -0.6, 0.3%
COc1ccc(C2=C(Nc3ccc(F)cc3)c3ccccc3C2=O)cc1
→ -4.6, -1, 0, 30, 0.8, 10%

Remaining list, next part.
The line under a structure holds: D2 ag, CtBP-E1A blk, Six1-Eya2 blk, TRPML1 blocker, TRPML1 ag, PINK1 expr mod
COCCN(C(=S)Nc1c(C)cccc1C)C(C)c1cccs1 (stereo unspecified)
→ -3.5, nt, 8, 42, -0.9, 0.0%
O=C(O)COc1c(-c2ccccc2)oc2ccccc2c1=O
→ -0.5, 41, 23, 0, -0.7, ?
CC1(C)CC(=O)C(CC(=O)Nc2ccc(S(N)(=O)=O)cc2)=C(O)C1
→ -2.8, -4, -6, 7, -0.3, 2.5%[38.3 µM]
CN(C)c1cccc(C(=O)OCC(=O)Nc2ccccc2-c2ccccc2)c1
→ -5.3, 0, -8, -10, -1.1, 4.2%
COc1ccc(CCNC(=O)c2cnn(-c3ccc(F)cc3)c2C2CCN(C(=O)OC(C)(C)C)CC2)cc1OC
→ nt, nt, nt, -1, 0.3, -1.0%
Cc1oc(-c2ccccc2F)nc1CS(=O)(=O)CC(=O)NCCCN(C)C1CCCCC1
→ -0.5, 5, 3, 2, -0.4, -0.1%[38.3 µM]
